KCNQ2 inh – KCNQ2 potassium channel inhibitors, primary screen, cell-based, CHO-K1, FluxOR thallium flux, B-score (AID 2156). Potassium voltage-gated channel subfamily KQT member 2 (Rattus norvegicus), O88943. 20 min; stronger effect = lower value; only compounds with negative scores are shown here; some inactives read as strong as hits. B-score at 10 µM. actives 1.1% (n = 310,000);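 active means fluorescence ratio B-score at most minus 3 library SDs, with starting brightness B-score within 2 library SDs, cut at about -5.5 in these data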
Target sequence (O88943 whole entry, looked up): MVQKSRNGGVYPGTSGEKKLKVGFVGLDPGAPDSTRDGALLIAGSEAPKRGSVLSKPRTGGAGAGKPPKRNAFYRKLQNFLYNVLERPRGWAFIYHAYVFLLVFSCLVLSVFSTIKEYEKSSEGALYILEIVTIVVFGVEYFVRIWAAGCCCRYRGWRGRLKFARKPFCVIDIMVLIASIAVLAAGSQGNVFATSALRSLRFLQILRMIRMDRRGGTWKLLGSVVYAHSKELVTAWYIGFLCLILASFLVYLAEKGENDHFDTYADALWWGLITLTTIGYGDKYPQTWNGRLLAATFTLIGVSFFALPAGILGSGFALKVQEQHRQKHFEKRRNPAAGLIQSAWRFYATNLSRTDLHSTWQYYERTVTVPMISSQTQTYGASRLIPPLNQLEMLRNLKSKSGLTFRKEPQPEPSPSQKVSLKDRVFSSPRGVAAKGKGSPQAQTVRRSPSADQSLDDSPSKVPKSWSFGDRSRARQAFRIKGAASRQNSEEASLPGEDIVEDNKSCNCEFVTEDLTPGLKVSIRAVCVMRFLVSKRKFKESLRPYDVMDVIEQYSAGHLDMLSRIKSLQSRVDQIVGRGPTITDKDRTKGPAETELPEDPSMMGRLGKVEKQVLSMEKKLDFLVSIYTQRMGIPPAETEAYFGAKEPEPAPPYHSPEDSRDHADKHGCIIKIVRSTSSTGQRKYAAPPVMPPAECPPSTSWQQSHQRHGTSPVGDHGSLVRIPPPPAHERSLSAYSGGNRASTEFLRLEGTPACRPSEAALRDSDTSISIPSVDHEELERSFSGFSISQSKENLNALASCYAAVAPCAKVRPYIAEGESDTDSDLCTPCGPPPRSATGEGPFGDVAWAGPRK
KCNQ2 inh baseline – second read-out of KCNQ2 inh, no call of its own (marks repeat the call); B-score; measured here: initial fluorescence intensity artifact check;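 brightness before thallium and not channel activity; 0 = typical well and far values either way flag optical interference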
Numbers without * were called inactive.

For COc1cccc2cc(C(C)N(CCCN3CCOCC3)C(=O)Nc3ccc(Cl)cc3)oc12 (configuration not stated) the results were KCNQ2 inh inactive and KCNQ2 inh baseline -0.13.
Screening c1coc(CN2CCN(C(c3cccs3)c3nnnn3C3CCCC3)CC2)c1 (configuration not stated) returned KCNQ2 inh inactive and KCNQ2 inh baseline 0.1.
CCOc1ccc(CSc2nc(C)cc(COC)c2C#N)cc1OCC was read as KCNQ2 inh inactive and KCNQ2 inh baseline 3.05.
For COc1ccc(/C=C2\SC(=S)N(CCC(=O)NC3=NCCS3)C2=O)cc1OC the results were KCNQ2 inh inactive and KCNQ2 inh baseline 0.23.
`Cc1ccc(-n2nnc3c(=O)n(CC(=O)N4CCCC4)cnc32)cc1` gave KCNQ2 inh inactive and KCNQ2 inh baseline -2.59.
Screening O=C(Cc1nc2ccccc2[nH]c1=O)c1ccccc1 returned KCNQ2 inh inactive and KCNQ2 inh baseline -0.41.
O=C(Nc1c(-c2cccs2)nc2ccccn12)c1ccccc1F was read as KCNQ2 inh inactive and KCNQ2 inh baseline -1.11.
`COc1ccc(S(=O)(=O)NCC(=O)N(CC(=O)NCC2CCCO2)c2c(C)cccc2C)cc1` (configuration not stated) gave KCNQ2 inh inactive and KCNQ2 inh baseline 0.55.
`COC(=O)[C@H](Cc1c[nH]c2ccccc12)NC(=O)Nc1ccccc1OC` gave KCNQ2 inh inactive and KCNQ2 inh baseline -0.05.
Screening O=C(O)c1cccc(NC(=O)c2ccc3c(c2)C(=O)N(c2ccccc2)C3=O)c1 returned KCNQ2 inh inactive and KCNQ2 inh baseline -0.98.

Next section; the last two above are carried over.
`COC(=O)[C@H](Cc1c[nH]c2ccccc12)NC(=O)Nc1ccccc1OC` gave KCNQ2 inh inactive and KCNQ2 inh baseline -0.05.
Screening O=C(O)c1cccc(NC(=O)c2ccc3c(c2)C(=O)N(c2ccccc2)C3=O)c1 returned KCNQ2 inh inactive and KCNQ2 inh baseline -0.98.
Screening O=C(Nc1ccc(Cl)cc1)c1ccc(S(=O)(=O)N2CCOCC2)cc1 returned KCNQ2 inh inactive and KCNQ2 inh baseline -0.66.
CCOc1ccc(CCNC(=O)Cn2cccc2C(=O)c2ccccc2C)cc1OCC was read as KCNQ2 inh inactive and KCNQ2 inh baseline 0.76.
`CCc1cc(=O)oc2c(C)c(OCC(=O)NCCCn3ccnc3)ccc12` gave KCNQ2 inh inactive and KCNQ2 inh baseline 3.72.
Cc1ccc2c(c1)CCCN2C(=O)c1ccoc1C was read as KCNQ2 inh inactive and KCNQ2 inh baseline -0.11.
O=C(Nc1ccc(F)cc1)NC1CCCc2ccccc21 (configuration not stated) was read as KCNQ2 inh inactive and KCNQ2 inh baseline 0.49.
Screening Cc1ccc(NC(=O)COC(=O)c2cc(Cl)cc(Cl)c2)c(Br)c1 returned KCNQ2 inh inactive and KCNQ2 inh baseline 1.53.
Screening Cc1ccccc1N(C(=O)c1snc(C(N)=O)c1N)C(C(=O)NCC1CCCO1)c1ccc(F)cc1 (configuration not stated) returned KCNQ2 inh inactive and KCNQ2 inh baseline 2.01.
Screening CCOC(=O)N1CCN(C2=C(NS(=O)(=O)c3ccc(C)cc3)C(=O)c3ccccc3C2=O)CC1 returned KCNQ2 inh inactive and KCNQ2 inh baseline 0.68.
`COc1ccc(CN(C(=O)c2oc3cc(C)ccc3c2C)C2CCS(=O)(=O)C2)cc1OC` (configuration not stated) gave KCNQ2 inh inactive and KCNQ2 inh baseline 0.47.
`Cc1ccc(-c2csc3ncnc(NCCC(=O)O)c23)cc1C` gave KCNQ2 inh inactive and KCNQ2 inh baseline 0.04.
For CCN(CCn1cccn1)C(=O)C1CCC(=O)N(CC2CCCCC2)C1 (configuration not stated) the results were KCNQ2 inh inactive and KCNQ2 inh baseline -1.89.
COc1cc(CCC(=O)OCC(=O)Nc2c(C)cccc2C(C)C)cc(OC)c1OC was read as KCNQ2 inh inactive and KCNQ2 inh baseline 0.25.
Screening CCC(=O)Nc1cccc(C(=O)OC)c1 returned KCNQ2 inh inactive and KCNQ2 inh baseline 1.66.
Screening COc1ccc(CNC(=O)c2cc3cccc(OC)c3oc2=N)cc1 returned KCNQ2 inh inactive and KCNQ2 inh baseline -0.23.
Screening CCOc1cc(CNc2ccccc2SC)ccc1O returned KCNQ2 inh inactive and KCNQ2 inh baseline 0.52.
Screening CC(=O)Nc1sc(C)c(C)c1C(=O)Nc1ccc(C)cc1 returned KCNQ2 inh inactive and KCNQ2 inh baseline -0.18.
`CN(C)S(=O)(=O)c1cc(S(=O)(=O)N(C)C)c(Cl)cc1N` gave KCNQ2 inh inactive and KCNQ2 inh baseline 1.48.
Screening CC(C)OC(=O)c1ccc(N2CCN(c3ccc(F)cc3)CC2)nc1 returned KCNQ2 inh inactive and KCNQ2 inh baseline 0.16.
Cc1cc(CNC(=O)CC2C(=O)NCCN2CC(c2ccccc2)c2ccccc2)on1 (configuration not stated) was read as KCNQ2 inh inactive and KCNQ2 inh baseline -0.32.
Screening CN(C)c1nc(N)nc(-c2nc3ccccc3s2)n1 returned KCNQ2 inh inactive and KCNQ2 inh baseline -0.04.
Screening CSCC[C@H](NC(=O)N1CCn2c1nc1ccccc12)C(=O)N1CCCCC1 returned KCNQ2 inh inactive and KCNQ2 inh baseline 0.09.
`CCNC(=S)SCCOc1ccccc1C` gave KCNQ2 inh inactive and KCNQ2 inh baseline 0.93.
For Cn1c(=O)[nH]c(=O)c2c1nc(CN1CCN(c3ccccc3F)CC1)n2CC(N)=O the results were KCNQ2 inh inactive and KCNQ2 inh baseline 0.78.
O=C(CCN1CCN(c2ccccc2)CC1)Nc1ccccc1 was read as KCNQ2 inh inactive and KCNQ2 inh baseline -0.89.
For O=C1c2ccccc2C(Nc2ccc(S(=O)(=O)N3CCCCCC3)cc2)N1c1ccccn1 (configuration not stated) the results were KCNQ2 inh inactive and KCNQ2 inh baseline -0.99.
`CN(/N=C/c1ccc2c(c1)OCO2)c1ccccc1` gave KCNQ2 inh inactive and KCNQ2 inh baseline -0.64.
`COc1cc(C(=O)NNC2=NC(C)(C)Cc3cc(C)c(C)cc32)cc(OC)c1OC` gave KCNQ2 inh inactive and KCNQ2 inh baseline 0.31.
COc1ccc(-c2nc(N)ncc2-c2csc(C)n2)c(O)c1 was read as KCNQ2 inh inactive and KCNQ2 inh baseline 0.13.
For C=CCOc1c(Br)cc(/C=C(\C#N)C(N)=O)cc1OC the results were KCNQ2 inh inactive and KCNQ2 inh baseline -0.05.
For CC1=NN(C(=O)c2nn(C)cc2Br)C(O)(C(F)(F)F)C1 (configuration not stated) the results were KCNQ2 inh inactive and KCNQ2 inh baseline -0.42.

Of the compounds above, these contain two or more sulfur atoms:
For COc1ccc(/C=C2\SC(=S)N(CCC(=O)NC3=NCCS3)C2=O)cc1OC the results were KCNQ2 inh inactive and KCNQ2 inh baseline 0.23.
`CN(C)S(=O)(=O)c1cc(S(=O)(=O)N(C)C)c(Cl)cc1N` gave KCNQ2 inh inactive and KCNQ2 inh baseline 1.48.
`CCNC(=S)SCCOc1ccccc1C` gave KCNQ2 inh inactive and KCNQ2 inh baseline 0.93.

Compounds shown so far containing an NH in an aromatic ring, in the order listed:
Screening O=C(Cc1nc2ccccc2[nH]c1=O)c1ccccc1 returned KCNQ2 inh inactive and KCNQ2 inh baseline -0.41.
`COC(=O)[C@H](Cc1c[nH]c2ccccc12)NC(=O)Nc1ccccc1OC` gave KCNQ2 inh inactive and KCNQ2 inh baseline -0.05.
For Cn1c(=O)[nH]c(=O)c2c1nc(CN1CCN(c3ccccc3F)CC1)n2CC(N)=O the results were KCNQ2 inh inactive and KCNQ2 inh baseline 0.78.

Additional records follow:
For CCCCCCN(C(=O)CCCCCN1C(=O)NC(c2ccc(C(C)(C)C)cc2)C(C(=O)OCc2ccccc2)=C1C)C(C(=O)NCCCC)c1ccc(OCC(=O)OC)c(C(=O)OC)c1 (configuration not stated) the results were KCNQ2 inh inactive and KCNQ2 inh baseline -0.15.
Screening COC(=O)C1(C)NC(c2ccc(OC)cc2)C2C(=O)N(c3ccccc3)C(=O)C21 (configuration not stated) returned KCNQ2 inh inactive and KCNQ2 inh baseline 0.35.
Screening CCCNC(=O)CSc1nnc(-c2ccccc2Br)n1-c1cccc(C(F)(F)F)c1 returned KCNQ2 inh inactive and KCNQ2 inh baseline 1.53.
For CC(=O)N1CCN(c2ccc([N+](=O)[O-])cc2)CC1 the results were KCNQ2 inh inactive and KCNQ2 inh baseline -1.37.
For Cc1cc(C)cc(OCC(O)CN2C(=O)NC(C)(C)C2=O)c1 (configuration not stated) the results were KCNQ2 inh inactive and KCNQ2 inh baseline -1.23.
Screening CCCNC(=O)C1CC(c2ccc(C(F)(F)F)cc2)=NO1 (configuration not stated) returned KCNQ2 inh inactive and KCNQ2 inh baseline 0.77.
For c1ccc(Nc2nc3ccccc3n3cnnc23)cc1 the results were KCNQ2 inh inactive and KCNQ2 inh baseline -0.63.
Screening CSc1nnnn1-c1cccc(O)c1 returned KCNQ2 inh inactive and KCNQ2 inh baseline 1.41.
`O=C(NC1CCCC1)c1cc(-c2ccc(Cl)cc2)on1` gave KCNQ2 inh inactive and KCNQ2 inh baseline 1.33.
`Cc1ccccc1CS(=O)(=O)Cc1ccc(C(=O)NCCCN2CCCC2=O)o1` gave KCNQ2 inh inactive and KCNQ2 inh baseline -0.69.
For c1ccc(-n2cnc3cc(NCc4ccncc4)ccc32)cc1 the results were KCNQ2 inh inactive and KCNQ2 inh baseline -0.21.
For O=C(c1ccc(OC2CCN(Cc3ccccn3)CC2)cc1)N1CCCCO1 the results were KCNQ2 inh inactive and KCNQ2 inh baseline 0.73.
`Cc1ccc(NC(=O)c2ccc3c(c2)C(=O)N(CC2CCCO2)C3=O)cc1C` (configuration not stated) gave KCNQ2 inh inactive and KCNQ2 inh baseline 0.7.
`CC(=O)c1cc(-c2ccccc2)n(CC(=O)N2CCCCC2)c1C` gave KCNQ2 inh inactive and KCNQ2 inh baseline 0.05.
`CCOc1ccccc1N(CC(=O)NCCOC)C(=O)CCC(=O)Nc1ccccn1` gave KCNQ2 inh inactive and KCNQ2 inh baseline 0.19.
For Cc1nc(Cl)c(C#N)c2c1CCCC2 the results were KCNQ2 inh inactive and KCNQ2 inh baseline 0.52.
For COc1ccc(C2=C(Nc3ccccc3)c3ccccc3C2=O)cc1 the results were KCNQ2 inh inactive and KCNQ2 inh baseline 0.04.
Screening CCOC(=O)N1CCN(C2CC(=O)N(c3ccccc3)C2=O)CC1 (configuration not stated) returned KCNQ2 inh inactive and KCNQ2 inh baseline -0.48.
O=C(NC1CCCCC1)c1cccc(S(=O)(=O)N2CCCCC2)c1 was read as KCNQ2 inh inactive and KCNQ2 inh baseline 0.42.
`CN1CCN(c2ccc(C(CC(N)=O)NC(=O)Cc3cccc4ccccc34)cc2[N+](=O)[O-])CC1` (configuration not stated) gave KCNQ2 inh inactive and KCNQ2 inh baseline 0.05.
For Cc1ccc(N(C(=O)Cc2cccs2)C(C(=O)NCC2CCCO2)c2ccncc2)cc1 (configuration not stated) the results were KCNQ2 inh inactive and KCNQ2 inh baseline -0.66.
O=C(NN1CCOCC1)c1cc(-c2ccncc2)nc2ccccc12 was read as KCNQ2 inh inactive and KCNQ2 inh baseline 0.09.
For Cc1ccc(NC(=O)C(CC(C)C)NC(=O)C2CCC(C)CC2)nc1 (configuration not stated) the results were KCNQ2 inh inactive and KCNQ2 inh baseline 0.91.
For Cc1cc(C)n(CCCNC(=O)c2ccc3c(c2)NC(=O)CS3)n1 the results were KCNQ2 inh inactive and KCNQ2 inh baseline 0.91.
`CN(C(=O)CSc1nc2ccccc2s1)c1c(N)n(Cc2ccccc2)c(=O)[nH]c1=O` gave KCNQ2 inh inactive and KCNQ2 inh baseline -0.01.
O=C(Cc1cccs1)N1CCN(c2nc(-c3ccc(Cl)cc3)cs2)CC1 was read as KCNQ2 inh inactive and KCNQ2 inh baseline 0.08.
`COc1ccc(-c2nnc(-c3ccc(OCC(C)C)cc3)o2)cc1` gave KCNQ2 inh inactive and KCNQ2 inh baseline 1.62.
Screening Cc1ccc(CNC(=O)CN(c2cccc([N+](=O)[O-])c2)S(C)(=O)=O)cc1 returned KCNQ2 inh inactive and KCNQ2 inh baseline 0.98.
For Oc1c(Cl)cc(Cl)cc1CNc1nccs1 the results were KCNQ2 inh inactive and KCNQ2 inh baseline 1.36.
Cc1c(C(=O)NC2CCN(Cc3ccccc3)C2)oc2ccc(Br)cc12 (configuration not stated) was read as KCNQ2 inh inactive and KCNQ2 inh baseline -1.52.
For N#C/C(=C\c1cc2ccccc2nc1N1CCOCC1)C(=O)Nc1ccc(N2CCOCC2)cc1 the results were KCNQ2 inh inactive and KCNQ2 inh baseline 0.22.
Screening O=C(NCCc1ccccc1)C(=O)NCC1OCCN1S(=O)(=O)c1cc(F)ccc1F (configuration not stated) returned KCNQ2 inh inactive and KCNQ2 inh baseline 0.6.
For CC(C)CC(NC(=O)c1ccccc1NC(=O)c1ccccc1)C(=O)O (configuration not stated) the results were KCNQ2 inh inactive and KCNQ2 inh baseline 0.01.
`O=C1CSC(c2ccc(F)cc2)N1c1c(F)cccc1F` (configuration not stated) gave KCNQ2 inh inactive and KCNQ2 inh baseline 1.33.
`O=C(O)Cc1c(C(=O)O)nnn1-c1ccc(Cl)cc1Cl` gave KCNQ2 inh inactive and KCNQ2 inh baseline 0.89.
For Cc1cc(C)nc(Nc2nc3ccccc3[nH]2)n1 the results were KCNQ2 inh inactive and KCNQ2 inh baseline 0.83.
For O=C(CN1C(=O)C(c2ccc(F)cc2)=NC12CCCC2)Nc1ccc(F)cc1 the results were KCNQ2 inh inactive and KCNQ2 inh baseline 2.7.
Screening COc1ccc(Cc2nnc(NC(=O)c3ccc(OC)cc3OC)s2)cc1 returned KCNQ2 inh inactive and KCNQ2 inh baseline -0.24.
Screening CC(C)c1cccc(C(C)C)c1NC(=O)COC(=O)C1=COCCO1 returned KCNQ2 inh inactive and KCNQ2 inh baseline -0.01.

Screening results deposited in PubChem by Johns Hopkins Ion Channel Center.

Only part of the results is shown; rates above refer to the full screens.
